VACV Venus inh – qHTS for Stage-Specific Inhibitors of Vaccinia Orthopoxvirus: Venus Reporter Primary qHTS | hit rate 0.46% among 330,000 | Potency, µM (titrated, usually from 36.5 µM), for inactives: at the top dose activity change, negative = inhibition, hits mostly inhibitors | Vaccinia virus Venus reporter expression, fluorescence | AID 720580, 2013; active means well fitted inhibition curve with a large enough effect; inconclusive means small, poorly fitted or top-dose-only effect; inactive means no such curve, though single readings can be large or run the other way; tested in A549 cells; further: nearly all actives have a fitted effect of over 30% in size; inactives centre near -10
Vaccinia mCherry – qHTS for Stage-Specific Inhibitors of Vaccinia Orthopoxvirus: mCherry Reporter Primary qHTS; Vaccinia virus mCherry reporter infection, fluorescence; about a quarter of the inactives have no number; Potency, µM (doses to about 36.5 µM), inactives show at the top dose activity change, negative = inhibition, actives largely listed as inhibitors; hit rate 0.63% among 310,000; AID 720579, 2013; active = well fitted inhibition curve with a large enough effect; inconclusive = small, poorly fitted or top-dose-only effect; inactive = no such curve, though single readings can be large or run the other way; tested in A549 cells; further: nearly all actives have a fitted effect of over 35% in size; inactives centre near -10
Numbers without * were called inactive; i = inactive; ? = inconclusive; nt = no result given; & = joins results of further samples; [ ] = remark or other dose. On the % scale 0 is the no-effect control and ±100 the full control effect; potency means the concentration at half of the fitted maximal effect.

SMILES | VACV Venus inh | Vaccinia mCherry
Cc1ccc(CS(=O)(=O)CCC(=O)N2CCOCC2)cc1 | 11% | 21%
COc1ccc(S(=O)(=O)N2CCN(c3ccccc3OC)CC2)cc1OC | -11% | -13%
COc1ccc(OC)c(C2C(C(C)=O)=C(O)C(=O)N2Cc2cccnc2)c1 (stereo not drawn) | -12% | -15%
CCCCCOc1ccc(NC(=O)c2cc(SC)ccc2Cl)cc1 | -1% | -4%
CCC(=O)OC1c2ccccc2C(=O)N1Cc1ccccc1 (stereo not drawn) | 8% | i
C[C@H](CO)N1C[C@H](C)[C@@H](CN(C)C)Oc2c(NC(=O)c3ccncc3)cccc2C1=O | -7% | i
O=C(c1cc2c(s1)CCCC2)N1CCN(CCO)CC1 | -2% | i
Cc1ccc(NC(=O)NCc2cccn2C)cc1C | -8% | i
Nc1nnn(CC(=O)N/N=C/c2ccc(O)cc2)n1 | -29% | ?
O=C(CNc1cccc2ccccc12)N/N=C/c1ccc[nH]1 | ? | ?
O=C(CSc1nnc(NC(=O)C2CC2)s1)NCc1ccc(F)cc1 | -9% | -7%
CCCC(=O)NCC(c1ccc2c(c1)OCO2)N1CCN(c2ccc(F)cc2)CC1 (stereo not drawn) | -2% | -9%
Cc1ccc(CNC(=O)CN2N=C(c3ccccc3)CCC2=O)cc1 | -6% | -11%
C/C=C(/C)C(=O)Nc1cccc(C2=NOC3(C2)C[C@H](C(N)=O)N(C(=O)c2ccc(Cl)cc2)C3)c1 (stereo partly drawn) | -18% | -8%
COc1ccccc1Cc1c(-c2ccc(C)cc2)nc2ccc(Br)cn12 | -7% | 12%
CCCC(=O)Nc1ccc(C(=O)NN2C(=O)c3ccccc3C2=O)cc1 | 0% | -11%
COC(=O)c1[nH]c2ccc(C)cc2c1NC(=O)CN1CCN(c2ccc(F)cc2)CC1 | -14% | ?
O=C(c1ccco1)N1CCN(c2ccc(N3CCCCC3)nn2)CC1 | -7% | -6%
Cc1ccsc1C(=O)NNC(=O)c1ccncc1 | -20% | -5%
CN(C)CCOC(=O)c1cccc(Br)c1 | 6% | nt
CC(CCc1ccccc1)NC(=O)CSc1nccc(=O)[nH]1 (stereo not drawn) | -13% | i
Cc1nc(-c2ccccc2)sc1C1(C)CC(c2ccc(C#N)cc2)=NO1 (stereo not drawn) | 1% | -7%
Cc1ccc(-n2c(-c3ccc(Br)cc3)n[nH]c2=S)c(C)c1 | -22% | -13%
CC[C@H](C)C(C(=O)N1CCN(C(=O)OC(C)(C)C)CC1)n1cc(C(CC(C)C)NC(=O)OC(C)(C)C)nn1 (stereo partly drawn) | -3% | 5%
Cc1nn(-c2ccccc2)c2c1C(c1ccc([N+](=O)[O-])cc1)N1C(=N2)C(=O)Nc2ccccc21 (stereo not drawn) | ? | ?

Next part:
SMILES | VACV Venus inh | Vaccinia mCherry
O=C(CN(C(=O)CNS(=O)(=O)c1ccc(F)cc1)C1CCCC1)NCc1ccco1 | -3% | i
CCOC(=O)c1sc(NC(C)=O)nc1-c1ccccc1 | -14% | -20%
CCOC(=O)CCCCCC(=O)Nc1ccc2c(c1)C(=O)N([C@@H](C)CO)C[C@H](C)[C@H](CN(C)C(=O)c1ccccc1)OCCCC[C@H](C)O2 | -1% | i
CCOc1ccccc1N(C(=O)Nc1cccc(Cl)c1)C1=NC(C)CS1 (stereo not drawn) | -3% | i
CCOC(=O)C1=C(C)Nc2ncnn2C1c1ccccc1F (stereo not drawn) | -19% | nt
O=C(NCc1cccnc1)c1cc(C2CCCCN2C(=O)OCCF)on1 (stereo not drawn) | 7% | -1%
CS(=O)(=O)c1ccc(Cl)c(NC(=O)COC(=O)CNC(=O)c2ccc(Br)o2)c1 | -7% | -4%
CC(C)c1ccc(Nc2nc(N3CCOCC3)nc(N3CCOCC3)n2)cc1 | -22% | -17%
Cc1ccc(OCc2nnc(SCC(=O)Nc3ccccc3C(C)C)o2)cc1 | -12% | 5%
Cc1ccc(F)cc1NC(=O)CCOc1ccccc1 | -16% | i
Nc1nonc1-n1nnc(C(=O)N/N=C/c2ccccc2F)c1CN1CCOCC1 | -2% | 15%
COCCn1ccc2c(OCC(=O)NCc3ccc(F)cc3)cccc2c1=O | -5% | -9%
COc1ccc(C(=O)COc2ccc(C(C)=O)cc2OC)cc1OC | -10% | -15%
Cc1ccc(CCNC(=O)C2CCN(S(=O)(=O)c3ccc4c(c3)NC(=O)C(C)S4)CC2)cc1 (stereo not drawn) | -27% | i
O=C(CSc1ncn[nH]1)c1ccc(OC(F)F)cc1 | 0% | -1%
O=C(N/N=C/c1ccc(-c2ccc([N+](=O)[O-])cc2)o1)c1cccnc1 | -17% | -1%
Cc1cc2oc(=O)c(CC(=O)O)c(C)c2c2occ(C(C)(C)C)c12 | -12% | i
Cc1ccc(C)c(NC(=O)c2ccc3c(c2)CCN3S(=O)(=O)c2ccccc2)c1 | -10% | -6%
O=[N+]([O-])c1ccccc1Nc1cccc(F)c1 | 6% | -18%
O=C(c1cc(Br)c[nH]1)N1CCSCC1 | 3% | i
CC1=C(C(=O)N2CCCCCC2)CC(CC(=O)NC2CCCCC2)C(=O)N1Cc1ccc(C(C)(C)C)cc1 (stereo not drawn) | -14% | -7%
CC1=CCC2C(=O)N(c3cc(C)on3)C(=O)C2C1 (stereo not drawn) | -10% | nt
NC[C@H]1O[C@@H](n2ccc(N)nc2=O)[C@H](O)[C@@H]1O | -9% | 35%[activator]
C[C@@H]1CC=C[C@H]2[C@H]1C(=O)N(Cc1ccccc1)[C@H]2c1ccc2ccccc2c1 | -15% | ?
Cc1cccc(NC(=O)CSc2nc(=O)n(Cc3cccnc3)c3c2CCC3)c1C | -1% | -16%

Continued:
SMILES | VACV Venus inh | Vaccinia mCherry
COc1cc(NC2=Nc3cccc4cccc2c34)cc(OC)c1OC | -23% | ?
COc1cc(OC)cc(C(=O)NNC(=O)CN2C(=O)NC(C)(c3ccccc3)C2=O)c1 (stereo not drawn) | -8% | -12%
Cc1ccc(S(=O)(=O)Nc2ccccn2)c(C)c1 | 6% | i
C[C@@H]1CN([C@@H](C)CO)C(=O)CCCn2cc(nn2)CO[C@H]1CN(C)S(=O)(=O)c1ccccc1C#N | -19% | 11%
Cn1nnnc1SCC(=O)c1ccco1 | -6% | -11%
COc1ccc(NS(=O)(=O)c2ccc3c(c2)NC(=O)CCS3)c(OC)c1 | -30% | -22%
O=S1OC(c2ccccc2)c2cc(Cl)ccc21 (stereo not drawn) | -3% | i
CCN1CCN(c2ccc(NC(=O)c3ccc(Cl)c(S(=O)(=O)N4CCCC4)c3)cc2)CC1 | -19% | 0%
O=C(CN1C(=O)COc2ccccc21)c1cccc(Cl)c1 | -4% | -9%
C/C(=N\NC(=O)c1cc(C)oc1C)c1ccc2c(c1)OCO2 | -5% | i
CCOCCCN1CC(C(=O)NCc2ccc3c(c2)OCO3)CC1=O (stereo not drawn) | 1% | -10%
COc1ccc(N(C(=O)c2ccc(F)cc2)C2=CC3CCC(C2)N3C)cc1 (stereo not drawn) | -1% | nt
COc1ccc(-[n+]2c(-c3ccccc3)cc(-c3ccccc3)cc2-c2ccccc2)cc1 | ? | ?
O=C(NCc1ccccc1)c1cc(C2CCCCN2S(=O)(=O)c2cccc3cccnc23)on1 (stereo not drawn) | -12% | -22%
COc1ccccc1CNC(=O)C1CCCN(S(=O)(=O)c2c(C)[nH]c(=O)[nH]c2=O)C1 (stereo not drawn) | -4% | nt
CCC/C(C#CCCN1C(=O)c2ccccc2C1=O)=C1/c2ccccc2C(=O)N1c1ccccc1 | -16% | -5%
CCC(C)Oc1cc(-c2ccnc(Nc3cccc(Cl)c3)n2)ccn1 (stereo not drawn) | ? | ?
COc1ccc(CN(C)S(=O)(=O)c2nnc(NC(=O)c3ccccc3Br)s2)cc1 | -16% | -2%
Cc1cccc(C)c1NC(=O)Cn1c(=O)n(Cc2ccc3c(c2)OCO3)c(=O)c2oc3ccccc3c21 | -6% | -10%
CC1=NN(c2ccccc2)C(=O)/C1=C/c1c(O)n(-c2ccc(F)cc2)[nH]c1=O | -19% | -10%
CC1CCc2nc(NC(=O)Nc3ccc4c(c3)OCO4)sc2C1 (stereo not drawn) | ? | ?
CCc1nnc(NC(=O)C2CC(=O)N(CCc3ccc(F)cc3)C2)s1 (stereo not drawn) | -6% | -6%
Cc1ccc(C)c(CN2C(=O)COc3ccc(C(=O)c4ccccc4C(=O)O)cc32)c1 | -5% | -9%
C=CCS/C(=N\n1cnc2ccccc2c1=O)N(CC)CC | -12% | nt
O=C(Nc1cccnc1)Nc1ccc(F)c(Cl)c1 | -1% | i

Further records:
SMILES | VACV Venus inh | Vaccinia mCherry
CCC(=O)N[C@H]1C=C[C@H](CC(=O)OC)O[C@@H]1CO | 0% | -5%
Cc1nc(C)c(/C(O)=C\c2nc3ccc([N+](=O)[O-])cc3oc2=O)o1 | -17% | -25%
CCOc1ccc(N2C(=O)CC(Sc3n[nH]c(-c4ccccc4)n3)C2=O)cc1 (stereo not drawn) | -8% | i
COc1ccc(S(=O)(=O)N(C)C[C@H]2OCc3cnnn3CCCC(=O)N([C@@H](C)CO)C[C@H]2C)cc1 | -7% | -27%
C=CCOc1nc(-c2ccncc2)nc2ccccc12 | 1% | -12%
O=C(COc1ccccc1)N1CCN=C1SCc1ccccc1F | -7% | -13%
O=C(c1ccc2c(c1)N(Cc1ccc(F)cc1)CCS2)N1CCC2(CC1)OCCO2 | -27% | -5%
CC(Nc1ccc2c(c1)OCCO2)C(=O)Nc1ccc2c(c1)OCO2 (stereo not drawn) | 8% | 11%
O=C(CCC1CCCN(C(=O)C2=CCCC2)C1)N1CCN(c2ccccn2)CC1 (stereo not drawn) | -8% | i
NC(C(=O)O)c1cc(=O)[nH]o1 (stereo not drawn) | -12%&-8% | -18%&-13%
Cc1ccc(NC(=O)Nc2nnc(N(CC(C)C)CC(C)C)s2)cc1Cl | -20% | -19%
Cc1ccc2c(CN3CCN(Cc4ccccc4Cl)CC3)cc(=O)oc2c1 | -18% | i
CC1CCCC(C)N1C(=O)Cn1cnc2cc([N+](=O)[O-])ccc2c1=O (stereo not drawn) | -5% | -14%
Cc1ccccc1-c1cnc(C(O)c2ccc(Cl)c(F)c2)[nH]1 (stereo not drawn) | -17% | i
COC(=O)C(CC(=O)c1ccc(Br)cc1)n1ccnc1 (stereo not drawn) | -5% | -12%
COc1ccc(-c2c(-c3cc(OC)cc(OC)c3)n(C)c3ccc(-c4ccc(N(C)C)nc4)cc23)cc1 | -21% | i
O=S(=O)(Nc1ccc(-n2cccc2)cc1)c1ccc(Cl)cc1Cl | -18% | i
CC1Oc2ccccc2OC1(O)c1ccc2ccccc2n1 (stereo not drawn) | -1% | -10%
COCc1cc(C)n(CC(=O)N/N=C/c2ccc(-c3ccc(Cl)c(C(=O)O)c3)o2)c(=O)c1C#N | -6% | i
O=C1C2C3c4ccccc4C(c4ccccc43)[C@@H]2C(=O)N1c1ccccn1 (stereo partly drawn) | -7% | -11%
CC(C)c1ccc(NC(=O)CN(Cc2ccccc2)S(C)(=O)=O)cc1 | -25% | ?
COc1cccc(NC(=O)CCC2CCN(C(=O)c3cncs3)CC2)c1 | -3% | -5%
O=[N+]([O-])c1ccc(N2CCCC2)c(F)c1Br | -12% | i
Cc1ccc(CCNC(=O)c2ccc3c(c2)nc2n3CCC(C)C2)cc1 (stereo not drawn) | -1% | 6%
CN(C(=O)COC(=O)c1cccc(S(=O)(=O)N2CCCCCC2)c1)c1ccccc1 | -20% | i
CC(=O)Nc1ccc(C(=O)CSc2nnc(-c3ccccc3)n2-c2ccccc2)cc1 | -2% | -18%
CC1(C)C/C(=N\O)C(C(O)c2cccc([N+](=O)[O-])c2)C(C)(C)N1 (stereo not drawn) | -13% | ?
Cc1cccc(C(C(=O)NC2CCCC2)N(C(=O)c2csnn2)C2CC2)c1 (stereo not drawn) | 9% | -29%

Source: PubChem
